Bfl-1 A1 inh = inhibitors of the anti-apoptotic protein A1, read as caspase activation | MEF A1-2A-BIM cells, Caspase-Glo 3/7 luminescence, 3 h; percent of clofoctol response, vehicle zero | caspase activation, % (no concentration beside the values) | 0.066% of 330,000 active;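 active means over half of replicate activation scores above 10%, or exactly half above 10 with the replicate mean above 10; inconclusive means replicate mean below 10 yet half the replicates above 10; inactive means over half of replicates below 10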;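 further: wells of about 30 µL received 50 nL stock; many hits fall short of the cut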
LANA-H2B inh = blocks KSHV LANA binding to histone H2A/H2B; 0.6% of 320,000 active; inhibition, % (no concentration beside the values); cell-free LANA-H2A/H2B peptide, fluorescence polarization; in the data active means inhibition mostly above about 10%, no sharp cut-off; inactive means mostly below about 6.7%;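 further: stock transfer was 7.5 nL into about 10 µL; 0% = median of vehicle wells and 100% = median of positive control wells; one replicate is shown; the record names a cut of 25% in any replicate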
Vif A3G = inhibitors of Vif binding to APOBEC3G peptide, primary screen, biochemical, TR-FRET, GST-Vif 1-94, biotin-A3G peptide, dose response retest (AID 1117319); inhibition, %, or IC50 in µM where a hit was titrated; 0.57% of 260,000 active; TR-FRET GST-Vif / biotin-A3G peptide binding; higher % means a stronger effect; test concentration not given here; strong numbers were not always called active;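 active means above the screen mean plus three standard deviations and confirmed in dose response; inconclusive means results disagree or hit not tested in dose response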;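 further: Vif residues 1-94 fused to GST binding biotinylated APOBEC3G peptide 110-148; 0% = full assay without inhibitor and 100% = GST in place of GST-Vif; retest series ran down from 100 µM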
AF4-AF9 inh = blocks AF4 peptide binding to human AF9 | 0.47% of 350,000 active | AlphaScreen, biotin-AF4 peptide binding to FLAG-AF9 | AID 651704 | inhibition, % at 10 µM;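 active means every replicate reaching a set inhibition limit, whatever the replicate mean, cut at about 25% in these data; inconclusive means mean inhibition reaches that limit but some replicates miss it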;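 further: 0% = plate neutral control median and 100% = total signal loss; the record names both 10 and 1 µM as test concentration; the first replicate is given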
Target sequence (P42568 whole entry, looked up): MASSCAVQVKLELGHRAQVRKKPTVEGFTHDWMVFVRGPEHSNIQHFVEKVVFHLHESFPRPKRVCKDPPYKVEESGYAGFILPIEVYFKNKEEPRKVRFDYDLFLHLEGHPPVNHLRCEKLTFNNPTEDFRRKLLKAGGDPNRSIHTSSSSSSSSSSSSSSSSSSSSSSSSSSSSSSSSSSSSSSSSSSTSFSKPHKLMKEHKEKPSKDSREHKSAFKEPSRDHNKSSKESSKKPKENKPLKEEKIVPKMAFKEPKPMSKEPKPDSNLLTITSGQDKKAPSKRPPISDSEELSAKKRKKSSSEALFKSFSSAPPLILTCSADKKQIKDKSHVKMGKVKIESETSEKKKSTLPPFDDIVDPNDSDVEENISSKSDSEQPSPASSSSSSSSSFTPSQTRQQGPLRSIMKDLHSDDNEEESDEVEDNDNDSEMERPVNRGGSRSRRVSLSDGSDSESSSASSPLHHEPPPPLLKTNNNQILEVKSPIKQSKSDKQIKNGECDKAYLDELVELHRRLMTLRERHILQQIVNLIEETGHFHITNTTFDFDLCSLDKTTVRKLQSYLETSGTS
RanGTP-Imp inh = inhibitors of RanGTP-importin-beta interaction, primary screen, biochemical, FRET, CFP-Ran, YFP-importin-beta, homogeneous | cell-free CFP-Ran/YFP-importin-beta FRET ratio | inhibition, % (no concentration beside the values) | 1.1% of 300,000 active | AID 2216;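 active means most replicates above 15%; inconclusive means exactly half above 15%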;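 further: 0% = DMSO wells and 100% = Ran loaded with GDP instead of GTP; wells of about 40 µL received 100 nL stock; the first replicate is given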
T cruzi repl = blocks replication of Trypanosoma cruzi; inhibition, % (concentration not given with the values); 1.4% of 300,000 active; T. cruzi beta-gal in NIH3T3, luminescence, 90 h;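 active means mean inhibition across valid replicates above about 55%, limit read from the data; inconclusive means mean below that limit but half or more replicates reach it; inactive means mean below it, under half of replicates reach it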;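 further: signal also drops with host cell toxicity which is not excluded here; 0% = plate median of DMSO wells and 100% = zero luminescence signal; higher percent means less beta-gal luminescence so fewer parasites; stock transfer was 50 nL into about 50 µL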
* hit, by the source's call; u = inconclusive; x = not tested or not shown.

[1] CCCOc1ccc2nc(NC(=O)OC)[nH]c2c1
[2] COc1cc(C=O)ccc1O
[3] CCCCCCCCCCCCCCC[C@@H](O)[C@@H](N)CO
[4] O=C1NC(=O)C2(CCOc3ccc(F)cc32)N1 (stereo not drawn)
[5] Cn1ccc2cc3c(cc21)CCN3C(=O)Nc1cccnc1
[6] O=[N+]([O-])c1cncn1CCN1CCOCC1
[7] O=C(O)Cc1sc(-c2ccccc2)nc1-c1ccc(Cl)cc1
Screen / compound no. | 1 | 2 | 3 | 4 | 5 | 6 | 7
Bfl-1 A1 inh | x | x | x | x | -0.5 | x | x
LANA-H2B inh | x | x | x | x | 3.1 | x | x
Vif A3G | x | x | x | x | x | -4% | -23%
AF4-AF9 inh | x | -2.3 | 1.2 | -3.2 | -6.8 | 0.2 | -1.5
RanGTP-Imp inh | u | x | x | x | x | x | x
T cruzi repl | 0 | x | x | x | x | x | x

Compound profiles, from the list above. Values in the order: Bfl-1 A1 inh, LANA-H2B inh, Vif A3G, AF4-AF9 inh, RanGTP-Imp inh, T cruzi repl
CCCOc1ccc2nc(NC(=O)OC)[nH]c2c1 is entered as x, x, x, x, u, 0
CCCCCCCCCCCCCCC[C@@H](O)[C@@H](N)CO is entered as x, x, x, 1.2, x, x
O=C1NC(=O)C2(CCOc3ccc(F)cc32)N1 (stereo not drawn) is entered as x, x, x, -3.2, x, x

Rewritten with tabs: entries from further up
cpd	molecule	Bfl-1 A1 inh	LANA-H2B inh	Vif A3G	AF4-AF9 inh	RanGTP-Imp inh	T cruzi repl
2	COc1cc(C=O)ccc1O	x	x	x	-2.3	x	x
3	CCCCCCCCCCCCCCC[C@@H](O)[C@@H](N)CO	x	x	x	1.2	x	x
4	O=C1NC(=O)C2(CCOc3ccc(F)cc32)N1 (stereo not drawn)	x	x	x	-3.2	x	x

Part of the list above, field by field.
[4] O=C1NC(=O)C2(CCOc3ccc(F)cc32)N1 (stereo not drawn)
  Bfl-1 A1 inh: x | LANA-H2B inh: x | Vif A3G: x | AF4-AF9 inh: -3.2 | RanGTP-Imp inh: x | T cruzi repl: x

[3] CCCCCCCCCCCCCCC[C@@H](O)[C@@H](N)CO
  Bfl-1 A1 inh: x | LANA-H2B inh: x | Vif A3G: x | AF4-AF9 inh: 1.2 | RanGTP-Imp inh: x | T cruzi repl: x

High-throughput results deposited in PubChem BioAssay by several laboratories.

This is a subset; rates above refer to the full screens.
